Screening results (PubChem)
Vaccinia Venus = inhibitors of vaccinia virus (Venus reporter). Vaccinia virus Venus reporter expression, fluorescence. Potency, µM (top dose mostly 36.5 µM), inactives show top-dose activity change, negative = inhibition, hits mostly inhibitors. 330,000 tested, 0.46% active. AID 720580; active means well fitted inhibition curve with a large enough effect; inconclusive means small, poorly fitted or top-dose-only effect; inactive means no such curve, though single readings can be large or run the other way; tested in A549 cells; further: nearly all actives have a fitted effect of over 30% in size; inactives centre near -10
VACV mCherry inh = inhibitors of vaccinia virus infection (mCherry reporter signal); AID 720579; 310,000 tested, 0.63% active; Potency, µM (top dose mostly 36.5 µM), for inactives: top-dose activity change, negative = inhibition, usual class: inhibitors; Vaccinia virus mCherry reporter infection, fluorescence; about a quarter of the inactives have no number; active = well fitted inhibition curve with a large enough effect; inconclusive = small, poorly fitted or top-dose-only effect; inactive = no such curve, though single readings can be large or run the other way; tested in A549 cells; further: nearly all actives have a fitted effect of over 35% in size; inactives centre near -10
Active calls of the source: *; i = inactive; ? = inconclusive; nt = not tested or not shown; & = joins results of further samples; [ ] = dose if it differs, or a comment. On the % scale 0 is the no-effect control and ±100 the full control effect; potency means the concentration at half of the fitted maximal effect.

Every second line gives: Vaccinia Venus, VACV mCherry inh
CSCC[C@H](NC(=O)c1ccc2ccccc2c1)C(=O)N1CCC2(CC1)NCCc1[nH]cnc12
    -11.7%, -20.0%
O=C(COc1ccccc1)NCC(c1cccs1)S(=O)(=O)c1ccc(Cl)cc1 (centres undefined)
    0.7%, -8.0%
CN(C)S(=O)(=O)c1ccc(C(=O)NCCSc2ccccc2)cc1
    -12.2%, -27.4%
CCOC1Cc2ccccc2N(C(N)=O)c2ccccc21 (centres undefined)
    -3.3%, -6.2%
O=c1c2oc3ccccc3c2n(Cc2ccccc2F)c(=O)n1Cc1ccco1
    -22.2%, -20.1%
COc1ccc(CCNc2nc3c(c(=O)n(C)c(=O)n3C)n2Cc2ccc(F)cc2)cc1OC
    -16.2%, ?
COCCCNc1nc(N)c([N+](=O)[O-])c(NC2CCCCC2)n1
    ?, -24.2%
CCCCN(C)C(=O)CC(NS(=O)(=O)c1ccc(NC(C)=O)cc1)C(C)C (centres undefined)
    -12.5%, -3.4%
CCCn1c(SCC(N)=O)nnc1-c1ccco1
    -3.3%, -7.9%
CC(=O)c1ccc(-n2c(C)c(C(C)=O)c3cc(O)ccc32)cc1
    0.7%, i
CCOC(=O)c1c(N)sn(-c2ccccc2)c1=S
    -16.3%, nt
CCOCCCn1c(SCC(=O)Nc2cc(C)ccc2C)nc2c(oc3ccccc32)c1=O
    12.4%, -4.2%
COc1ccc(S(=O)(=O)NCC2CCC(C(=O)N3CCC4(CC3)OCCO4)CC2)cc1 (centres undefined)
    0.6%, nt
COC(=O)c1cc(NC(=O)Nc2cccc(Cl)c2)ccc1Cl
    ?, ?
CCCCN1C(C)=CC(=C2C(=O)c3ccccc3C2=O)C=C1C
    0.9%, -10.7%
O=C(N/N=C/c1ccncc1)C12CC3CC(CC(C3)C1)C2
    -15.8%, -22.0%
CCCC(=O)NC(c1ccc(Cl)cc1Cl)c1ccc2cccnc2c1O (centres undefined)
    ?, ?
C[C@@H]1CN([C@@H](C)CO)C(=O)CCCn2nncc2CO[C@H]1CN(C)S(C)(=O)=O
    -7.3%, -12.3%
CCc1ccccc1NC(=O)/C(C#N)=C\c1ccc(Sc2ccccc2)o1
    -4.4%, i
N#Cc1ccc(OCCOCCNC2CCCC2)cc1
    -9.9%, i

Reformatted in markdown: part of the list above
| SMILES | Vaccinia Venus | VACV mCherry inh |
| --- | --- | --- |
| COc1ccc(S(=O)(=O)NCC2CCC(C(=O)N3CCC4(CC3)OCCO4)CC2)cc1 (centres undefined) | 0.6% | nt |
| COC(=O)c1cc(NC(=O)Nc2cccc(Cl)c2)ccc1Cl | ? | ? |
| CCCCN1C(C)=CC(=C2C(=O)c3ccccc3C2=O)C=C1C | 0.9% | -10.7% |
| O=C(N/N=C/c1ccncc1)C12CC3CC(CC(C3)C1)C2 | -15.8% | -22.0% |
| CCCC(=O)NC(c1ccc(Cl)cc1Cl)c1ccc2cccnc2c1O (centres undefined) | ? | ? |

Later entries:
Every second line gives: Vaccinia Venus, VACV mCherry inh
O=C(N/N=C/c1ccncc1)c1ccccc1OCc1ccc(Br)cc1
    ?, ?
O=C1C=C(OCCF)CC(c2ccc(Br)cc2)O1 (centres undefined)
    -11.9%, -2.8%
O=C(O)CCC(=O)NCCn1c(-c2ccccc2)csc1=Nc1ccccc1
    -0.2%&-6.2%, -2.2%&-19.5%
CS(=O)(=O)N1CCC(C(=O)Nc2cccc(C(F)(F)F)c2)CC1
    -6.7%, -14.7%
O/N=C\c1cccn1-c1ccc(Br)cc1
    -12.5%, nt
CCCCn1nnnc1C(c1ccccc1)N1CCN(c2cccc(C(F)(F)F)n2)CC1 (centres undefined)
    -18.9%, -16.4%
CC(C)(C)c1cc(C(=O)N/N=C/c2ccccc2O)n(-c2ccccc2)n1
    ?, ?
O=S(=O)(N[C@H](CO)Cc1ccccc1)c1ccc(Br)cc1F
    -12.3%, -5.7%
Nc1nc(SCC(=O)Nc2ccc(Cl)cn2)n[nH]1
    -2.9%, -6.3%
Cc1ccc(S(=O)(=O)N(C)C)cc1NC(=O)CSc1ncn[nH]1
    -11.5%, -8.1%
Cc1ccccc1C(OCC(O)CN1CCC(C(N)=O)CC1)c1ccccc1 (centres undefined)
    -12.5%, -1.5%
COc1ccc(CCNC(=O)c2cc([N+](=O)[O-])ccc2N2CCOCC2)cc1
    -22.3%, ?
CCOC(=O)N1CCc2c(sc3c2c(=O)n(-c2ccc(CC)cc2)c(=O)n3Cc2cccc(Cl)c2)C1
    -12.6%, -12.5%
CCOC(=O)c1sc(=S)n(C)c1NC(=O)c1ccc(F)cc1
    -0.8%, -23.7%
CCCCOc1ccc(OCCNS(=O)(=O)N(C)C)cc1
    -13.5%, i
N#CCCN(C(=O)COC(=O)COc1ccc(Cl)cc1)c1ccccc1
    -6.3%, -1.0%
CC(=O)Nc1ccc(OCC=C(Cl)Cl)cc1
    -5.1%, -7.6%
Cc1ccc(-n2cccc2/C=C2/C(=N)N3C(=NC2=O)SN=C3S(C)(=O)=O)cc1
    9.4%, i
Cc1cccc(C)c1N(CC(=O)Nc1cc(Cl)ccc1Oc1ccccc1)S(C)(=O)=O
    ?, nt
CCOC(=O)c1ccc2c(c1)n(CCO)c(C)[n+]2CC
    -14.3%, i
CCN(CC)CCNC(=O)Cc1nn(CC)c(=O)c2ccccc12
    -8.3%, -17.0%
CC(C)(C)OC(=O)N1CCC(c2c(C(=O)N3CCCCC3)cnn2-c2ccc(Cl)cc2)CC1
    -17.1%, -12.0%
CCOC(=O)c1sc2nccc(N(C)C)c2c1N=CN(C)C
    -1.1%, nt
O=C(CCCn1c(=O)c2sccc2n(Cc2cc(=O)n3ccccc3n2)c1=O)NCc1ccco1
    2.7%, 15.2%
COc1ccc(CN2C(=O)CCC2(C)C(=O)NC2CCCCC2)c(OC)c1 (centres undefined)
    -9.7%, i
CCc1cccc2c(C(=O)CN3C(=O)NC4(CCc5ccccc54)C3=O)c[nH]c12 (centres undefined)
    ?, ?
Cn1c(C(=O)Nc2cccc(C(F)(F)F)c2)cc2c(=O)n3ccccc3nc21
    -2.6%, 0.3%
COc1cccc(OC)c1C(=O)Nc1nc2ccc([N+](=O)[O-])cc2s1
    8.3%, i
Fc1ccc(NC(=S)NCc2ccccc2Cl)cc1
    -18.6%, i
c1ccc(-c2cc(-c3ccc(N4CCOCC4)cc3)nc3ccccc23)cc1
    -16.2%, -22.4%
Cc1nn(-c2ccc(C(F)(F)F)cn2)c(C)c1Oc1ccccc1O
    ?, ?
C#CCn1c(=NC(=O)c2ccc(Br)s2)sc2cccc(OC)c21
    -7.2%, 6.8%
Cc1cc(C)c(S(=O)(=O)N(C)CC(=O)NCc2ccncc2)c(C)c1
    -16.1%, -21.0%
S=C1NCN(C2CCCCC2)CN1CCc1ccccc1
    -13.5%, -24.5%
S=C(N/N=C/c1ccc2ncccc2c1)Nc1ccccc1
    11.2µM*, 7.94µM*
Cc1ccc(NC(=O)Cn2c(=O)n(-c3ccccc3)c(=O)c3ccc(C(=O)NCc4ccc5c(c4)OCO5)cc32)cc1
    -6.5%, -7.2%
Fc1ccc2cnc(CCO[C@H]3CCCCO3)cc2c1
    -17.4%, i
Cc1ccc(NC(=O)Cc2nnc(SCC(=O)Nc3nncs3)n2C)cc1
    -1.2%, 3.8%
Fc1cccc(Cc2c(-c3cccc(Cl)c3)nc3ccc(Cl)cn23)c1
    -6.2%, 3.3%
CC(C)C[C@H](N)C(=O)N1CCC(C(=O)N[C@H](C(=O)NC(C)c2ccccc2)C(C)C)CC1 (some centres undefined)
    7.9%, 5.7%
O=C1C2CC(O)CN2C(=O)N1c1ccccc1 (centres undefined)
    -5.2%, -7.5%
Cc1c(O)c2c(c(C(=O)/C=C/c3ccccc3)c1O)OC(C)(C)C=C2
    -18.8%, -12.5%
COc1ccc(CCNC(=O)C2CCCN(c3ncccn3)C2)cc1 (centres undefined)
    -2.7%, -2.2%
Cc1cccc(C(=O)NCC(=O)NC2CCC(C)CC2)c1 (centres undefined)
    -12.1%, -7.1%
CC1CC1C(=O)Nc1nc(-c2ccccn2)cs1 (centres undefined)
    -11.8%, nt
C1=Nc2ccccc2/C1=C/c1ccccc1
    -5.6%, -14.5%
CC(=O)N1CCCc2cc(S(=O)(=O)N(C)CC(=O)Nc3ccccc3)ccc21
    -4.9%, -5.9%
O=C(c1ccco1)N1CCCC(c2nc3c(nnn3Cc3cccc(Cl)c3)c(=O)[nH]2)C1 (centres undefined)
    -10.4%, -13.9%
Cc1ccc2c(c1)CC(C)N2S(=O)(=O)c1nnc(NC(=O)CC(C)C)s1 (centres undefined)
    -9.8%, -11.6%
CCOc1ccccc1N1CC(C(=O)Nc2cc(Cl)ccc2-n2cncn2)CC1=O (centres undefined)
    -12.6%, -7.9%
COC(=S)Nc1cccc(C(F)(F)F)c1
    -0.1%, i
CC(=O)N1CCN(S(=O)(=O)c2cccc(C(=O)Nc3ccc(F)c(F)c3)c2)CC1
    -7.0%, -9.4%
O=C(NCC(=O)N(c1ccccc1)C(C(=O)NC1CCCC1)c1ccncc1)c1ccco1 (centres undefined)
    -3.9%, -11.6%
COc1ccc(S(=O)(=O)n2nc(OC(=O)c3cccs3)cc2NC(=O)c2cccs2)cc1
    -18.2%, -3.4%
CCOC(=O)C1=C(c2ccccc2)c2ccccc2OC1C(=O)OCC (centres undefined)
    -14.1%, -7.0%
CC1CC(C)(C)NC(=S)S1 (centres undefined)
    -9.5%, -10.4%
CN1CCN(C(=O)c2ccc(CN(c3ccccc3)S(=O)(=O)c3ccccc3)cc2)CC1
    -15.0%, i
CSc1cccc(NC(=O)CCNS(=O)(=O)c2ccc3[nH]c(=O)oc3c2)c1
    -0.6%, -15.2%
O=C(O)[C@H]1CC=C[C@H]2CCN(Cc3ccc(Cl)c(Cl)c3)C(=O)[C@@H]12
    -10.4%, ?
Cc1ccccc1C(=O)c1cccn1CC(=O)NCc1ccco1
    -11.5%, nt

Remaining list, next part.
Every second line gives: Vaccinia Venus, VACV mCherry inh
c1ccc2cc(N3CCCCC3)ccc2c1
    -14.3%, ?
Cc1ccc(S(=O)(=O)N(C)/N=C/c2ccc(N(C)C)cc2)cc1
    -8.3%, ?
CN1CCN(Cc2c(O)ccc3c2oc(=O)c2ccccc23)CC1
    0.8%, nt
O=C(N/N=C/c1cccn1-c1cccc(C(=O)O)c1)Nc1ccccc1
    -4.2%, -14.5%
CC(=O)c1sc2nc(-c3ccccc3)cc(C)c2c1N
    -7.3%, i
Cc1ccccc1CNC(=O)c1c(C)oc2c1C1=NCCN1C=N2
    -2.0%, -8.6%
Cc1cc2nc(-c3ccccc3)c(Cc3ccccc3)n2c(C)c1Br
    -16.7%, 3.1%
COC(=O)c1cc(NC(=O)COC(=O)CCc2nc3ccccc3c(=O)[nH]2)cc(C(=O)OC)c1
    -15.4%, i
O=C1CC(SCCc2nc3ccccc3[nH]2)C(=O)N1c1ccc(F)cc1 (centres undefined)
    -10.6%, -14.4%
CN(C)c1ncnc2c1ncn2[C@H]1CN(Cc2ccncc2)C[C@@H](CO)O1
    -2.9%, -26.3%
O=C(O)C(=Cc1ccnc2ccccc12)C(=O)O
    -6.4%, -7.8%
COc1ccc(NC(=O)CC23CC4CC(C2)CC(n2nnc(C)n2)(C4)C3)cc1
    -15.5%, i
Cc1ccc(NC(=O)CSc2nc3ccccc3c(=O)n2CCCC(=O)NCCCN2CCOCC2)cc1C
    -11.6%, -7.8%
Clc1ccc(Nc2c(-c3ccccc3Cl)nc3ccc(Cl)cn23)cc1
    -20.3%, ?
COc1ccc(OC)c(C(=O)N(Cc2cc3cccc(C)c3nc2N2CCC(O)CC2)C2CC2)c1
    -11.9%, -13.2%
NS(=O)(=O)c1ccc(NC(=S)NCc2ccc(Cl)cc2)cc1
    ?, nt
CSC(=Nc1ccc(Cl)cc1)N[n+]1ccccc1
    -6.2%, -12.1%
O=C(CN1C(=O)NC2(CCCC2)C1=O)N1CCN(S(=O)(=O)c2ccc(Cl)c(C(F)(F)F)c2)CC1
    -15.7%, -7.3%
COc1ccccc1NC(=O)C(=O)N/N=C(\C)CC(=O)Nc1ccccc1C(F)(F)F
    -4.5%, i
O=C(CCS(=O)(=O)c1nc(-c2cccs2)cc(C(F)(F)F)n1)Nc1cccc(O)c1
    -16.2%[7.34 µM], -19.0%[7.34 µM]
O=C1C[C@H]2C=CCc3cccc(c32)CN1Cc1ccc(Cl)cc1
    -11.5%, -0.5%
Nc1nc(Cl)c(C=O)c(N2CCCCC2)n1
    -0.4%, -6.6%
O=C(/C=C/c1ccc(OCCCF)cc1)Nc1ccnc(-c2cccnc2)n1
    -13.7%, i
Cc1cccc(C)c1OCc1cc(C(=O)N2CCC(C3CCCCC3)C2)no1 (centres undefined)
    -8.8%, -7.3%
COc1cc(C2C(C#N)=C(N)Oc3cc(O)ccc32)cc2c1OCO2 (centres undefined)
    ?, i
CCOC1=C2[C@@H](CN(S(=O)(=O)c3ccc(C)cc3)[C@H]2c2ccccc2F)[C@H]2C(=O)NC(=O)[C@H]2C1
    3.8%, 14.6%
CCCS(=O)(=O)N1CCCC(C(=O)NCc2cccnc2)C1 (centres undefined)
    -19.2%, -10.6%[1.46 µM]
CC(C)CCn1nnnc1CN1CCN(c2ccccc2)CC1
    -3.0%, -12.4%
Cc1ccc(NC(=S)N2CCCC(c3ccccc3)=N2)cc1
    -16.4%, -27.4%
